CapD inh – CapD enzyme inhibition; purified CapD enzyme, fluorescence intensity read-out; hits give low values; some hits fall short of the stated cut; z-score (test concentration not listed); actives 0.23% (n = 140,000); AID 492967;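 active means z-score under -4 in either of two replicates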;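 further: stock transfer was 100 nL into about 40 µL; score is relative to mean and spread of the plate; one replicate is shown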
AID504770 – E. coli YBA685 growth inhibition, screen for V. cholerae RctB inhibitors; z-score (concentration not given with the values); E. coli YBA685 rctB-dependent plasmid, OD600 growth, 3 h; hits give low values; actives 0.27% (n = 130,000); AID 504770;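 active means z-score under -2 on both plates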;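 further: wells of about 30 µL received 100 nL stock; score is relative to mean and SD of the test wells; the first replicate is given; strong numbers were not always called active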
Numbers without * were called inactive; · = not tested or not shown.

molecule	CapD inh	AID504770
Cc1c(-n2c(=S)[nH]c3ccccc3c2=O)c(=O)n(-c2ccccc2)n1C	-0.23	-0.35
CC(CCc1ccccc1)NC(=O)CSc1cc(=O)n(C)c2ccccc12 (stereo unspecified)	4.4	-0.75
Cc1cc(NCCCN2CCCC2=O)n2c(nc3ccccc32)c1C#N	·	1.1
COc1ccc(-c2nc3scc(CCNC(=O)c4ccccc4)n3n2)cc1	·	1.4
O=C(NNc1ccccc1I)C(O)(c1ccccc1)c1ccccc1	-0.33	·
O=C(NCc1ccccc1)c1nnc(CS(=O)(=O)c2ccccc2)o1	0.48	0.1
CNC(=O)Cn1c(=O)n(C)c2ccccc21	-0.45	-0.75
CC(C)N(CCCC(O)c1ccc(F)cc1)C(=O)c1cccs1 (stereo unspecified)	-0.42	·
COc1ccc(C2CC(=O)C3=C(C2)NC(C)=C(C(=O)OCCOc2ccccc2)C3c2ccc(O)c(OC)c2)cc1 (stereo unspecified)	11	·
COc1ccc2c(c1)c(Sc1ccccc1)c(CC(=O)Nc1cccc(Cl)c1)n2C	-0.04	·

Five entries picked at random from those above, as already listed:
molecule	CapD inh	AID504770
O=C(NCc1ccccc1)c1nnc(CS(=O)(=O)c2ccccc2)o1	0.48	0.1
Cc1cc(NCCCN2CCCC2=O)n2c(nc3ccccc32)c1C#N	·	1.1
O=C(NNc1ccccc1I)C(O)(c1ccccc1)c1ccccc1	-0.33	·
CNC(=O)Cn1c(=O)n(C)c2ccccc21	-0.45	-0.75
Cc1c(-n2c(=S)[nH]c3ccccc3c2=O)c(=O)n(-c2ccccc2)n1C	-0.23	-0.35

Next section.
molecule	CapD inh	AID504770
CCN(CC)CCN1C(=O)C2C3c4ccccc4C(c4ccccc43)C2C1=O (stereo unspecified)	·	-0.75
CN(C)S(=O)(=O)c1ccc(NC(=O)C2CCC2)cc1	1.2	-0.35
CCCCNC(=O)Nc1nc(-c2ccc(C)cc2)c(-c2ccc(C)cc2)o1	·	1.8
CCOc1ccc2nc(SC3CC(=O)N(c4cccc(OC)c4)C3=O)sc2c1 (stereo unspecified)	0.12	·
CN(C)S(=O)(=O)c1ccc(C(=O)Nc2[nH]nc(N3CCCC3)c2C#N)cc1	·	0.85
COc1ccc(C(=O)N2CCN(CCn3c(C)ccc3C)CC2)cc1	-0.02	-0.6
CC1=CC(=O)C(C(=O)/C=C/c2ccccc2)C(=O)O1 (stereo unspecified)	·	0.4
N#C/C(=C\Nc1cc(Cl)cc(Cl)c1)c1ccc(OCCCF)cc1	-1.1	·
CC(C)c1nc(NCc2ccccc2)c(C#N)c2c1CCCC2	7.5	0.35
CCCc1cc(=O)n2[nH]c(NC(=O)C(c3ccccc3)c3ccccc3)nc2n1	-0.33	-0.45
CCCOc1ccc(/C=C/C(=O)Nc2ccc(S(=O)(=O)Nc3ncccn3)cc2)cc1	-0.86	0.6
CC(C)(CNc1ccc([N+](=O)[O-])cn1)SCc1cccc(C(F)(F)F)c1	-0.38	·
Cc1ccc(-c2csc3nc[nH]c(=O)c23)cc1C	0.54	-0.65
C/C(=N\NC(=O)Cc1csc(N2CCOCC2)n1)c1ccccc1	·	0.55
Cc1cc(C)n2nc(SC(C)C(=O)NC(=O)NC3CCCCC3)nc2n1 (stereo unspecified)	·	1.8
O=C(c1cccs1)N1N=C(c2ccccc2)CC1c1cccs1 (stereo unspecified)	·	-0.75
CC(=O)Nc1ccc(SCC(=O)c2cc(C)n(C)c2C)cc1	·	-0.45
O=C(Nc1nc2ccccc2s1)c1ccccc1	0.53	-0.05
COC(=O)c1cc(S(=O)(=O)NCc2cccs2)oc1C	-0.67	-0.5
CCOC(=O)COn1c(=O)c(-c2ccc(Cl)cc2)[n+]([O-])c2ccccc21	0.39	-1
CC(=O)Nc1ccc(-n2c(/C=C/c3ccc([N+](=O)[O-])cc3)nc3ccccc3c2=O)cc1	-0.56	·
Cc1cc(C)nc(OC(Cc2cnccn2)c2ccccc2)n1 (stereo unspecified)	-0.12	·
CCCn1c(SC)nc2ccccc2c1=O	·	1.8
ClC1=NN(c2ccccc2)CC1	0.3	-1.1
COC(=O)c1cc(Cl)c(NC(=S)NC(=O)C(C)(C)C)cc1OC	0.01	0.6
CCOC(=O)c1ccc2nc(C(F)(F)F)cc(N3CCC(C(=O)OCC)CC3)c2c1	0.02	·
CC(C)CC1C(C#N)=C(N)OC2=C1C(=O)CC(c1ccccc1)C2 (stereo unspecified)	0.3	-0.2
Cc1ccc(N2C(=O)c3ccccc3NC2c2ccc(OCc3ccccc3)cc2)cc1 (stereo unspecified)	51	·
Cc1onc(C(N)=O)c1C(=O)Nc1cccc(C(F)(F)F)c1	-1	1.1
Cc1ccc(CC(C#N)Sc2n[nH]c(-c3ccccc3F)n2)cc1 (stereo unspecified)	·	-0.75
CCOc1ccc(-c2ccc(=O)n(CC(N)=O)n2)cc1	·	1.9
Cc1[nH]c2ccccc2c1C(=O)CSc1nc2cc(S(=O)(=O)N3CCCCC3)ccc2o1	·	-0.35
O=C1C2ON(c3ccc(Br)cc3)C(c3cccnc3)C2C(=O)N1c1ccccc1 (stereo unspecified)	-0.015	-0.25
CCn1cc(C(=O)NCCc2c(C)[nH]c3ccc(OC)cc23)c(C)n1	0.33	-0.7
CSc1nc(-c2ccco2)nn1C(=O)c1ccccc1	4.1	1.1
CC(C)(C)c1ccc(C(=O)N2NC(=Nc3ccccc3)SC2(C)C)cc1	-0.56	·
CCn1c(SC)nnc1C1CCCN(C(=O)c2ccccc2-c2ccccc2)C1 (stereo unspecified)	·	-0.3
O=C(CCc1ccc(S(=O)(=O)N2CCOCC2)cc1)N1CCN(Cc2ccccc2)CC1	·	-0.1
CCCc1ccc(S(=O)(=O)NC(COC)C(O)c2ccccc2)cc1 (stereo unspecified)	-0.24	·
C=CCn1c2ccccc2c2nnc(SCc3ccccc3C)nc21	-0.94	1.8

Next section, overlapping the part above by four compounds.
molecule	CapD inh	AID504770
CCn1c(SC)nnc1C1CCCN(C(=O)c2ccccc2-c2ccccc2)C1 (stereo unspecified)	·	-0.3
O=C(CCc1ccc(S(=O)(=O)N2CCOCC2)cc1)N1CCN(Cc2ccccc2)CC1	·	-0.1
CCCc1ccc(S(=O)(=O)NC(COC)C(O)c2ccccc2)cc1 (stereo unspecified)	-0.24	·
C=CCn1c2ccccc2c2nnc(SCc3ccccc3C)nc21	-0.94	1.8
CCC(C)C(=O)N1CCN(C(=O)c2ccc(OC)c(F)c2)CC1 (stereo unspecified)	-0.58	·
O=S(=O)(c1cccc2nsnc12)N1CCCCC1	-0.31	-0.25
N#Cc1ccc(OCC(=O)c2ccccc2)cc1	0.32	-0.35
O=C1CN(C(=O)COC(=O)C2CCN(S(=O)(=O)c3ccccc3)CC2)c2ccccc2N1	·	-1.8
O=C(Nc1cccc(F)c1)C1C2C=CC3(CN(CCCN4CCOCC4)C(=O)C13)O2 (stereo unspecified)	0.47	-0.8
Cc1csc(=NC(=O)c2ccccc2)n1Cc1ccco1	·	-0.05
FC(F)(F)c1ccncc1-c1nnc(C2CCCCC2)o1	0.47	0.7
CSCCC(NCc1ccccc1O)C(=O)O (stereo unspecified)	-0.035	0.45
COc1ccc2[nH]c3nc4ccccc4nc3c2c1	1.9	·
O=C(COc1cccc2ccccc12)Oc1ccc(-c2nnco2)cc1	·	-0.1
O=C(O)c1cccc(NCc2ccncc2)c1	3	1.5
Cc1scc(CN2CCOCC2)c1C	0.23	0.25
Cn1nc(C(=O)N2CCN(C3CCS(=O)(=O)C3)CC2)c2ccccc2c1=O (stereo unspecified)	·	0.3
CC(=O)OC1CCN(CCc2ccccc2)C(C)C1C (stereo unspecified)	-0.44	0.4
CCC1CCCCN1C(=O)COc1cccc2c1OC(C)(C)C2 (stereo unspecified)	·	1.9
O=C(Nc1ccccc1F)Nc1ccccc1N1CCCCC1	-1.7	2.1
CCOc1ccc2c3c(c(=O)oc2c1OCC)CCC3	7.6	-0.6
NCCC(O)(P(=O)(O)O)P(=O)(O)O	-0.25	·
CCSCCOC(=O)C1=C(C)NC2=C(C(=O)CC(c3cccs3)C2)C1c1coc2ccccc2c1=O (stereo unspecified)	-0.27	·
O=C1C2CCCN2C(=S)N1c1ccccc1 (stereo unspecified)	·	0

2 of these compounds, reformatted:
Cn1nc(C(=O)N2CCN(C3CCS(=O)(=O)C3)CC2)c2ccccc2c1=O (stereo unspecified)
- CapD inh: ·
- AID504770: 0.3

NCCC(O)(P(=O)(O)O)P(=O)(O)O
- CapD inh: -0.25
- AID504770: ·

(cont.)
molecule	CapD inh	AID504770
Cc1ccc2nsnc2c1C	0.17	·
CCCC(=O)Nc1ccc2c(c1)c1ccccc1n2CC	22	1.3
CCC(=O)N1c2cc(C)c(C)cc2-c2c(ssc2=S)C1(C)C	0.46	·
CN(Cc1ccccc1)C(=O)Cn1ncc2c1-c1ccccc1OC2	0.46	-0.45
O=C(OCC(=O)N1CCC(c2ccccc2)=N1)C1CC2CCCC(C1)C2=O (stereo unspecified)	·	0.25
Cc1ccn(-c2ccccc2)n1	0.49	1
CCC(CO)NS(=O)(=O)c1cc(-c2nnc3c4ccccc4c(C)nn23)ccc1OC (stereo unspecified)	9.7	0.15
CCOC(=O)C1=C(N)Oc2ccccc2C1C(C#N)C#N (stereo unspecified)	24	-2.1
O=C(Cn1cnc2c(nnn2Cc2ccc(Cl)cc2)c1=O)NC1CCCC1	-0.76	0.4
COCCCNC(=O)CSc1nc2cc(C(=O)NCCOC)ccc2c(=O)n1Cc1ccc2c(c1)OCO2	-0.12	·

Other entries.
structure | CapD inh | AID504770
CCN(C(=O)CSc1nc(C)cc(C)c1C(N)=O)C1CCS(=O)(=O)C1 (stereo unspecified) | · | 1.2
C/C(=N/NC(=O)C(F)(F)F)c1cccs1 | · | 0.1
COc1ccc(-c2nnc(C3CCN(S(C)(=O)=O)CC3)o2)cc1 | -0.38 | -1.9
COc1ccc(N2C(=O)c3ccccc3NC2c2ccc(OC)c(COc3ccccn3)c2)cc1 (stereo unspecified) | 4.2 | ·
Cc1ccc(C(=O)Nc2nonc2NC(=O)c2ccc(C)cc2)cc1 | 0.49 | 0.15
O=S1(=O)CCC(N=Cc2ccccc2O)C1 (stereo unspecified) | · | 0.55
COC(=O)c1ccc(NC(=O)CSc2nc(C)nc3sc4c(c23)CCC4)cc1 | 0.03 | ·
O=C(N/N=C/c1cccc([N+](=O)[O-])c1)N/N=C/c1cccc([N+](=O)[O-])c1 | -0.68 | ·
Cc1ccccc1-c1oncc1-c1nnnn1-c1ccccc1 | -0.32 | 0.75
O=C(CSc1ncnc2ccccc12)Nc1ccc(F)c(F)c1F | -0.28 | 1.4
N#CC(c1ccc(Br)cc1)c1ccc(C(=O)c2ccc(F)cc2)cc1 (stereo unspecified) | -0.19 | ·
Cc1cc(C)nc(Sc2ccc(NC(=O)NC(=O)C(C)(C)C)cc2)n1 | -0.56 | ·
O=C1c2ccccc2C(=O)c2cc(NC(=O)C(c3ccccc3)c3ccccc3)ccc21 | -0.42 | ·
CC(=O)Oc1ccc2c(c1)OC1(c3ccc(OC(C)=O)cc3OC(C)=O)CCCC1C21CCCC1 (stereo unspecified) | 0.02 | -0.9
CCOC(=O)c1c[nH]c2c(-c3ccccc3)c(C(F)(F)F)sc2c1=O | 1.7 | 1
CN(C)C1N(C(=O)c2ccccc2)N=C2c3ccccc3S(=O)(=O)N21 (stereo unspecified) | -0.2 | ·
Cc1c(-c2nc3ccccc3s2)oc2ccccc12 | · | 0.55
CC(=O)NCc1ccc2[nH]c(C)cc2c1 | 0.25 | -1
Cc1ccc2occ(/C=N/N3CC(=O)NC3=O)c(=O)c2c1 | · | 0.75
O=C(Cn1c2ccccc2c(=O)c2ccccc21)N1CCN(c2cccc(Cl)c2)CC1 | 6.3 | ·
Cn1cc(-c2nc3ccccc3s2)c(N)n1 | 29 | -0.35
N=C1S/C(=C\c2ccc(Cl)cc2Cl)C(=O)N1c1nonc1N | -1.5 | ·
COc1cc(OC)nc(C2CCN(C(=O)CCC(=O)NCc3ccncc3)CC2)n1 | 0.05 | ·
CCCN(Cc1nnc(-c2ccco2)o1)C(=O)CSc1nc2ccccc2n1C | · | -0.85
COc1ccccc1NC(=O)C(C)Sc1nnc(N)s1 (stereo unspecified) | · | 0.85
NCCn1ccc2ccccc21 | · | -0.45
O=C(c1cc2ccccc2o1)N1CCc2c([nH]c3ccccc23)C1c1ccccc1 (stereo unspecified) | -0.03 | ·
COC(=O)NC(Nc1ccccc1C(F)(F)F)C(=O)c1ccccc1 (stereo unspecified) | -0.4 | 2.1
Cc1onc(-c2ccccc2)c1CN1CCOCC1 | 0.29 | -0.95
COc1ccccc1C1=NOC(Cn2c(NCc3ccccc3)nc3c2c(=O)n(C)c(=O)n3C)C1 (stereo unspecified) | 0.82 | -0.35
CCOC(=O)c1ccc2nc(C(F)(F)F)cc(N3CCN(c4ccccc4)CC3)c2c1 | 2.7 | -0.2
Cc1cc(C)cc(OCC(=O)N2Cc3ccccc3CC2C(=O)O)c1 (stereo unspecified) | · | -0.7
Cc1[nH]c2ccccc2c1CCN | 0.38 | -0.75
COC(=O)c1ccc(NC(=O)C(C)Sc2n[nH]c(C)n2)cc1 (stereo unspecified) | · | -0.35
CCc1ccc(/C=c2\sc3nc(C4COc5ccccc5O4)nn3c2=O)cc1 (stereo unspecified) | -0.89 | 3.4
Cc1ccc2c(c1)N(C(=O)NCc1ccccc1)CC(C)O2 (stereo unspecified) | 0.59 | 0.5
Cc1nnc(SCC(=O)NCC2CCCO2)n1C1CCCCC1 (stereo unspecified) | · | -0.45

Assay outcomes as filed in PubChem.

Rows are unselected. Share with any hit: about 0.39%.
